Assay outcomes from PubChem.
Tg IFNy HTS – T. gondii growth inhibition under IFN-gamma. activity change, negative = inhibition, %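 (about 20 µM by stock and volumes)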. Toxoplasma gondii growth in IFN-gamma-treated host cells; stronger effect = lower value; reference of the scale not given here. hit rate 3.8% among 69,000;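 active = below -70%; inconclusive = fit judged invalid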;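 also: host cells are HeLa cells infected with Toxoplasma gondii; parasite growth read as luciferase light; one replicate is shown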
The depositor's hits bear a star; i = inactive; ? = inconclusive; & = joins results of further samples. A portion of the library; rates above refer to the full screens.

Start of the listing, in advance:
compound	Tg IFNy HTS
CCc1cccc(NC(=O)c2nc(Nc3ccc(C)cc3)c3ccccc3n2)c1	88
CC(C(=O)N(C)C)N(C)Cc1cc(C(C)(C)C)ccc1O (stereo not drawn)	-30
Cc1nc(C2CCN(CC(=O)Nc3ccc(F)cc3)CC2)ncc1C(=O)Nc1ccccc1	-37
COC(=O)c1cc(=O)c2ccc(OC)cc2o1	37
CSc1nncc(-c2ccc(Cl)cc2)n1	-41

Results, previewed entries included:
compound	Tg IFNy HTS
CCc1cccc(NC(=O)c2nc(Nc3ccc(C)cc3)c3ccccc3n2)c1	88
CC(C(=O)N(C)C)N(C)Cc1cc(C(C)(C)C)ccc1O (stereo not drawn)	-30
Cc1nc(C2CCN(CC(=O)Nc3ccc(F)cc3)CC2)ncc1C(=O)Nc1ccccc1	-37
COC(=O)c1cc(=O)c2ccc(OC)cc2o1	37
CSc1nncc(-c2ccc(Cl)cc2)n1	-41
COc1ccc(NC(=O)N2CCC3(CC2)Nc2cc(C)ccc2-n2cccc23)cc1OC	i
COC(=O)c1ccccc1S(=O)(=O)Nc1ccc2c(c1)CCC(=O)N2	29
CN(Cc1nc2ccccc2n1C)C(=O)[C@H]1CCCO1	51
CCOC(=O)c1nc(N(C)c2ccccc2F)c2ccccc2n1	42
COC(=O)c1cscc1NC(=O)CC(CC(=O)O)c1ccccc1 (stereo not drawn)	4
O=C1CC(C(=O)N(c2ccccc2)C(C(=O)NCc2ccccc2)c2ccccc2)CS1 (stereo not drawn)	-8
c1ccc(Nc2nc3c(s2)CCCC3)cc1	i
O=C(NCCc1csc(-c2ccc(F)cc2)n1)C(=O)Nc1ccc(F)c(Cl)c1	-12
C/C=C/c1ccc([C@H]2[C@@H](CO)N(C(=O)C3CC3)[C@@H]2CNC(=O)NC(C)C)cc1	-30
Cc1ccn2c3c(nc2c1)CNC(=O)CC3c1ccc(C(=O)O)s1 (stereo not drawn)	7
COc1ccc(OC)c(S(=O)(=O)Nc2ccc3oc4c(c3c2)C(=O)CCC4)c1	-62
CCOCc1ncn2c1CN(C(=O)c1ccco1)CC2	-1
COc1ccc(-c2nc(Cn3ccn4nc(-c5ccc(OC)c(OC)c5)cc4c3=O)c(C)o2)cc1	-35
O=C(NCc1ccc(N2CCCC2=O)cc1)c1ccc(F)cc1	1
CC(C(=O)NCCCn1ccnc1)(c1ccccc1)c1ccccc1	-25

More structures.
compound	Tg IFNy HTS
CN(C)CCN1[C@@H]2CCN(C(=O)[C@H]3CCCO3)CC[C@@H]2Oc2ccccc2S1(=O)=O	2
COc1coc(CN2CCCC(CCc3ccccc3C)C2)cc1=O (stereo not drawn)	-14
CC(C(=O)NCCc1nc(-c2ccncc2)n[nH]1)c1ccccc1 (stereo not drawn)	-10
COc1ccnc(-c2cccc(OC)c2OC)n1	6
COc1cccc(CNC(=O)C[C@@H]2CC[C@@H]3[C@H](COc4ccc(NS(=O)(=O)c5ccccc5F)cc4C(=O)N3C)O2)c1	0
CC(=O)N1[C@@H]2c3ccc(-c4cccnc4)c(=O)n3C[C@H]1[C@H](CO)[C@H]2C(=O)NC1Cc2ccccc2C1	14
COc1ccccc1N1CCN(CCN2C(=O)c3ccccc3C(C)(C)C2=O)CC1	4&26
Cc1[nH]c(=O)[nH]c(=O)c1-c1cccc(C(C)N(C)C)c1 (stereo not drawn)	4
COc1cccc(CCNC(=O)c2c(O)c3ccccc3[nH]c2=O)c1	38
CCCOc1ccc(-c2noc(-c3c(O)c4ccccc4n(C)c3=O)n2)cc1OC	14
CCc1cccc(NC(=O)Cn2c(=O)cc(C(=O)N3CCCC3)c3ccccc32)c1	-51
CC1(C(=O)N2CCCC(c3[nH]ncc3Cc3ccccc3)C2)CCNCC1 (stereo not drawn)	52
CC(C)c1cc(CN(C)C(=O)CC23CC4CC(CC(C4)C2)C3)no1	-10
O=C(C[C@H]1CC[C@H](NC(=O)C2CCOCC2)[C@H](CO)O1)NCC1CCCCC1	-25
Cc1ccc(OC(=O)N(C)C[C@@H]2OCc3ccccc3-c3ccccc3C(=O)N([C@H](C)CO)C[C@@H]2C)cc1	-34
Cc1ccc(Nc2nc(C(=O)Nc3ccc4c(c3)OCCO4)nc3ccccc23)cc1	-56
O=C(c1cccc2ccnn12)N1C[C@@H]2[C@H](C1)[C@H]1CC[C@@H]2O1	4
CCCC(C)c1nnc(NC(=O)CCOCC)s1 (stereo not drawn)	29
Cc1nc(-c2ccccc2)sc1CCNS(=O)(=O)c1ccc(Br)cc1	i
CC(NC(=O)c1cccc2ccnn12)c1cn2ncsc2n1 (stereo not drawn)	6

New compounds follow:
compound	Tg IFNy HTS
Cc1cc2nc(SCc3nc4ccccc4c(=O)[nH]3)[nH]c2cc1C	162
O=C1NC(c2cccnc2)(C2CCNCC2)C(=O)N1Cc1ccccc1F (stereo not drawn)	3
COc1ccccc1C(O)c1nccn1C (stereo not drawn)	7
CC(=O)N1C[C@H]2CCC[C@]2(COc2cccnc2)C1	i
CCCn1nccc1C(=O)N1C[C@H]2C[C@H](O)[C@H](O)C[C@H]2C1	-8
Cc1cccc(NC(=O)CC(=O)NCCCn2ccnc2)c1C	303
c1ccc2c(c1)oc1c(N3CCN(C4CCCC4)CC3)ncnc12	?
N#Cc1cccc(C(=O)N2CC[C@H]3[C@@H]2CCN3CC2CC2)c1	131
CN1C(=O)c2cc(NS(=O)(=O)CC(F)(F)F)ccc2OC[C@H]2O[C@@H](CC(=O)NCC3CCCCC3)CC[C@@H]21	12
C=CCNC(=O)c1c(O)c2cccnc2n(-c2cccc(F)c2)c1=O	-76*
Cc1csc(-c2coc3cc(O)cc(C)c3c2=O)n1	54
COc1ccc2c3c(n(C)c2c1)[C@@H](CO)N(C(=O)CC1CC1)CC31CN(C(=O)NC(C)C)C1	129
CCCCCc1ccc(-c2ccc(SC(F)F)nn2)cc1	64
COc1ccc(-c2nc(NCCN3CCCCC3C)c3ccccc3n2)cc1 (stereo not drawn)	-56
Cc1nc2c(c(N(C)C)n1)CCN(C(=O)c1ccc(N)nc1)C2	2
CCn1c(=O)c(-c2nc(-c3ccccn3)no2)c(O)c2ccccc21	17
COc1ccc(-c2nc(Nc3cc(OC)cc(OC)c3)c3ccccc3n2)cc1	-30
O=C1NC2(C=Cc3c(ccc4ccccc34)O2)Oc2ccccc21 (stereo not drawn)	-107*
O=C(CSCCOc1ccccc1)Nc1ccc(Cl)cc1Cl	63
c1cncc(OC2COC3(CCN(Cc4ccoc4)CC3)C2)c1 (stereo not drawn)	-1

The results go on.
compound	Tg IFNy HTS
CC(C)N(Cc1ccccc1)C(=O)c1cc2cccnc2n(Cc2ccc(F)cc2)c1=O	-96*
CCOc1ccccc1CNC(=O)Cn1ncc2c(N3CCN(c4ccccn4)CC3)ncnc21	76
C[C@@H]1CN(C2CCN(Cc3nc(C(c4ccccc4)c4ccccc4)no3)CC2)C[C@H](C)O1	-4
CCc1ccc(NC(=O)NC(C)(C)C)cc1	298
CNC(=O)CC1C(=O)NCCN1Cc1cnn(-c2ccc(C)c(C)c2)c1 (stereo not drawn)	4
CC(C)[C@H]1CN(Cc2ccco2)CCN1C(=O)Nc1ccccc1F	21
CCN1CCOCC2(CCCN(C(=O)c3cn(C)cn3)C2)C1 (stereo not drawn)	-63
O=C(O)C1CCN(C(=O)C2CCN(Cc3ccccn3)CC2)C1 (stereo not drawn)	9
O=C(NC1CC1)c1ccnc(-c2cccc3ccnn23)c1	8
COCCN1C2COCC1CN(Cc1cccc(C)c1)C2	3
O=C(C[C@H]1CC[C@@H]2[C@H](COC[C@@H](O)CN2C(=O)Nc2ccccc2)O1)NCc1ccccc1F	7
CCCC(=O)Nc1cc(C(=O)N(CC)Cc2ccncc2)ccc1C	102
Cc1nn(C(C)C)c(C)c1CN1CCN(c2ncc(F)cn2)CC1	-2
O=C(c1cccc(F)c1)N1CC(=O)N2[C@@H](CO)[C@H](c3ccc(/C=C/c4ccccc4)cc3)[C@@H]2C1	-44
COCCN1CCCC(O)(CN2CCN(c3cnccn3)CC2)C1=O (stereo not drawn)	5
COc1ccc(CCC(=O)N2CCC(C)(C(=O)NCc3ccc(F)cc3F)CC2)cc1	7
OC[C@H]1[C@@H](c2ccc(Br)cc2)[C@@H]2CNCCCCN12	25
CN(C)CC1(O)CCCN(C(=O)c2ccc(N3CCCC3=O)cc2)C1 (stereo not drawn)	3
O=C(NC1CCN(CC2(c3cccc(F)c3)CCCC2)CC1)c1cn[nH]n1	31
CCC1(c2cccc(OS(=O)(=O)c3ccc(OC)c(OC)c3)c2)CCCCN(C)C1=O (stereo not drawn)	-8

Sorted by heavy-atom count (low to high): some entries from above
compound	Tg IFNy HTS
CN(C)CC1(O)CCCN(C(=O)c2ccc(N3CCCC3=O)cc2)C1 (stereo not drawn)	3
CCC1(c2cccc(OS(=O)(=O)c3ccc(OC)c(OC)c3)c2)CCCCN(C)C1=O (stereo not drawn)	-8
CC(C)N(Cc1ccccc1)C(=O)c1cc2cccnc2n(Cc2ccc(F)cc2)c1=O	-96*
O=C(C[C@H]1CC[C@@H]2[C@H](COC[C@@H](O)CN2C(=O)Nc2ccccc2)O1)NCc1ccccc1F	7

(listing goes on)
compound	Tg IFNy HTS
O=C(Cn1ncc2c(N3CCN(c4ccccn4)CC3)ncnc21)Nc1ccccc1F	-31
O=C(C1CCOCC1)N1CCN(CC2CC2)c2ncccc2C1	9
Clc1ccc(-c2nc(N3CCN(Cc4ccc5c(c4)OCO5)CC3)c3ccccc3n2)cc1	17
O=C1CSC(=O)N1c1ccc(C(F)(F)F)cc1	-18
O=C(c1cccs1)N1CCn2c(Cn3cccn3)cnc2C1	3
CCCNC(=O)NCc1cc(C)cc2c(C)c(CC)[nH]c12	-15
CC(C)c1nnc(SCC(=O)N2CCOCC2)n1C	-7
CC(C)c1nnsc1CNC(=O)c1cc(-c2cccs2)nn1C	-28
CO[C@H]1CN(C)C(=O)c2ccc(NS(=O)(=O)c3c(C)noc3C)cc2OC[C@@H](C)NC[C@@H]1C	114
Cc1nc2c(c(=O)[nH]1)CCN(C(=O)c1c(-c3ccccc3Cl)noc1C)C2	11
Cc1cc(C)n(CCCN(C)C(=O)c2cnc(C)nc2C)n1	-22
O=S(=O)(c1ccccc1)N1CC2(C1)[C@@H](c1ccccc1)[C@@H](CO)N2CC1CCOCC1	-30
COc1ccc(-c2nc(C)c(CCNS(=O)(=O)c3cc(C)c(C)cc3C)s2)cc1	463
CSCC[C@@H](CO)NC(=O)c1cn(-c2ccccc2)nn1	3
CCn1c(C2CCN(C(=O)CCc3cc(Cl)no3)CC2)nn(C)c1=O	-8
C=CCOC1CC2CC1CN2C(=O)c1cnoc1C (stereo not drawn)	5
COc1cc(CN2CC3(CN(C(=O)CN4CCOCC4)C3)c3c(n(C)c4cc(OC)ccc34)[C@@H]2CO)cc(OC)c1	-53
CC(=O)N1[C@H](CO)[C@@H](c2ccccc2)[C@H]1CN(C)S(=O)(=O)c1ccccc1	-10
Cc1nn(C(C)C)c(C)c1CN1CCC(C2CC=CCN(CCc3ccccc3)C2=O)CC1 (stereo not drawn)	6
O=c1c(-c2cc(O)c(O)c(O)c2)coc2cc(O)c(O)c(O)c12	19

Additional records
compound	Tg IFNy HTS
CC(=O)N1CCC2(CC1)CC(NCC1CCOC1)c1ccccc1O2 (stereo not drawn)	34
Cc1ccccc1C1CCN(CCn2cnnc2)C1 (stereo not drawn)	7
O=S1(=O)CC(S(=O)(=O)c2cccs2)c2ccccc21 (stereo not drawn)	40
CC(C)N(Cc1cnn(C)c1)C(=O)c1ncc[nH]1	12
CCc1cc(N2CCCC(C)(CO)C2)nc(N(C)C)n1 (stereo not drawn)	2
CCc1ncc(C(=O)N(C)CCc2nc3ccc(OC)cc3[nH]2)cn1	9
CCN(C)c1ncnc2c1CCN(C(=O)c1ccnnc1)CC2	27
S=c1nc(-c2ccccc2)n(Cc2ccccn2)c2c1CCCC2	-7
C[C@H]1CCCCO[C@H](CN(C)C(=O)Nc2cccc3ccccc23)[C@@H](C)CN([C@@H](C)CO)C(=O)c2cc(NC(=O)CCC(F)(F)F)ccc2O1	14
CO[C@H](CN(C)S(=O)(=O)c1ccc(C)cc1)[C@H](C)CN(C(=O)Nc1ccccc1F)[C@H](C)CO	26
CC(C)c1cccc(NC(=O)Cn2c(=O)cc(-c3nc(C4CC4)no3)c3ccccc32)c1	-15
O=C(Nc1cnc2n1CCCC2)c1nccnc1C(=O)N1CCCCC1	6
CCCN(CCC)S(=O)(=O)c1ccc(C(=O)Nc2ccc(F)cc2)cc1	-88*
COc1ccc(-c2nc(NCCc3ccccc3)c3ccccc3n2)cc1	-48
CC(C)C(=O)NCc1csc(C2CCCN(C(=O)c3cc(F)ccc3F)C2)n1 (stereo not drawn)	-7
CCn1cc(CN2CCN(C(=O)CCS(=O)(=O)c3ccc(Cl)cc3)CC2)cn1	8
Cc1cc(C(=O)N[C@@H]2C[C@H]3C(=O)N(C)CC(=O)N3C2)n[nH]1	-11
C[C@H](CO)N1C[C@H](C)[C@@H](CN(C)C(=O)CCCN(C)C)OCCCC[C@H](C)Oc2ccc(NC(=O)Nc3ccc4c(c3)OCO4)cc2C1=O	137
Cc1ccccc1-c1ncc(-c2c(-c3ccccc3)ncn2CCO)cn1	-2
CCS(=O)(=O)N1CC2(CN(C(=O)c3ccc(F)cc3)[C@H](CO)c3c2c2ccc(OC)cc2n3C)C1	19

Other records follow:
compound	Tg IFNy HTS
Oc1cc(-c2cccc(Cl)c2)cc2c1OCCN(Cc1cscn1)C2	-23
c1coc(CN2CCC(NCC3CCN(C4CCCC4)CC3)CC2)c1	0
Cc1nnsc1C(=O)Nc1ccc(-c2cn3c(n2)SCC3)cc1	272
COc1cc(CNC(=O)C2(C)CCN(C(=O)c3ccc4c(c3)OCO4)CC2)cc(OC)c1	35
Cc1cc(-c2n[nH]c(=O)n2CCc2ccc(F)cc2)n(C)n1	9
